Vaccinia inh: blocks a specific stage of Vaccinia orthopoxvirus infection; activity change (mCherry), % (no concentration beside the values); hit rate 0.01% among 89,000; Vaccinia-infected cells, mCherry/Venus stage reporter fluorescence; stronger effect = lower value; some inactives read as strong as hits; AID 1053133;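 active = mCherry past -33% and 40 or more points under the early reporter, replicates agreeing; inconclusive = past -33% without that gap or agreement; tested in A549 cells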;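 note: scaled between vehicle wells and reference inhibitor wells; 23 nL library stock went into each well; one replicate is shown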
Vaccinia inh Venus: further read-out of Vaccinia inh, marked with its call; activity change (Venus), %; measured here: Venus reporter, other viral stage;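 negative = less Venus signal; first of two replicates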
An asterisk follows results filed as active; ? = inconclusive; nt = not tested or not shown; & = joins results of further samples.

Each structure is followed by: Vaccinia inh	Vaccinia inh Venus
1) CO[C@H]1CN(C)C(=O)c2cc(NC(=O)C3CCOCC3)ccc2OC[C@H](C)N(Cc2nccs2)C[C@@H]1C
→ 2.6	4.1
2) O=C(c1ccccc1F)N1C[C@@H]2[C@H](c3ccccc31)[C@@H](CO)N2Cc1ccc2c(c1)OCO2
→ -3.2	4.4
3) O=C(O)C[C@@H]1C[C@@H]2c3cc(NS(=O)(=O)c4ccc(F)cc4)ccc3O[C@@H]2[C@H](CO)O1
→ 2.3	1.8
4) C[C@H](CO)N1C[C@H](C)[C@@H](CN(C)Cc2ccc3c(c2)OCO3)Oc2c(NS(=O)(=O)c3ccc(Cl)cc3)cccc2C1=O
→ 1.9	-5.1
5) O=C(NCC1CCCCC1)[C@H]1[C@H](CO)[C@H]2Cn3c(cccc3=O)[C@H]2N1Cc1ccccn1
→ 4.0	9.7
6) O=C(C1CCC1)N1CC2(C1)[C@H](c1ccccc1)[C@H](CO)N2CCC(F)(F)F
→ 0.9	6.0
7) CO[C@@H]1CN(C)C(=O)c2ccc(NS(=O)(=O)c3cn(C)cn3)cc2OC[C@H](C)N(Cc2cccc(F)c2)C[C@@H]1C
→ -12.8	-11.8
8) O=C(CC1CC1)Nc1ccc2c(c1)[C@H]1C[C@H](CC(=O)N3CCc4ccccc4C3)O[C@@H](CO)[C@H]1O2
→ 6.3	7.0
9) C[C@H](CO)N1C[C@H](C)[C@H](CN(C)C(=O)Nc2ccc(F)cc2)Oc2ccc(N(C)C)cc2CC1=O
→ 2.6	0.8
10) COc1ccc2c3c(n(C)c2c1)[C@H](CO)N(C(C)=O)CC31CCN(Cc2cccnc2)CC1
→ -1.8	-1.9

Next part
Each structure is followed by: Vaccinia inh	Vaccinia inh Venus
11) C[C@H]1CN([C@@H](C)CO)C(=O)c2cccc(NC(=O)C3CC3)c2O[C@H]1CN(C)S(=O)(=O)c1cn(C)cn1
→ 16.6	19.1
12) COc1ccc(C#Cc2ccc([C@H]3[C@@H](CO)N4CCCCN(C(=O)Cc5ccccc5)C[C@H]34)cc2)cc1
→ ?	nt
13) Cc1ccccc1S(=O)(=O)N(C)C[C@@H]1OCc2ccccc2-c2ccccc2C(=O)N([C@H](C)CO)C[C@@H]1C
→ -30.5	-29.3
14) CCCN(C)C[C@H]1OCCCC[C@@H](C)Oc2ccc(NC(=O)c3ccncc3)cc2C(=O)N([C@H](C)CO)C[C@@H]1C
→ 12.3	13.5
15) O=C(C[C@@H]1CC[C@H]2[C@@H](COC[C@@H](O)CN2C(=O)c2cnccn2)O1)NCc1ccc(Oc2ccccc2)cc1
→ 7.6	4.0
16) C[C@@H]1CN([C@H](C)CO)S(=O)(=O)c2ccc(C3=CCCC3)cc2O[C@H]1CN(C)Cc1ccccc1
→ -15.0	-7.8
17) OC[C@@H]1[C@H](c2ccccc2)C2(CN(Cc3ccccc3)C2)N1Cc1ccncc1
→ 7.1	4.6
18) O=C(c1ccncc1)N1C[C@@H]2[C@H](c3ccccc31)[C@@H](CO)N2Cc1ccc(F)cc1
→ 0.2	-0.8
19) CCOC(=O)[C@@H]1[C@@H]2NC(=S)N(C)[C@@]1(C)Oc1ccccc12
→ -3.5	-7.8
20) CCCNC(=O)N[C@H]1C=C[C@@H](CC(=O)NC2CCC2)O[C@H]1CO
→ 1.1	2.5

Later entries:
Each structure is followed by: Vaccinia inh	Vaccinia inh Venus
21) O=C(c1cccnc1)N1CC[C@@H]2[C@@H](CO)Nc3ccc(-c4cccc(F)c4)cc3[C@@H]21
→ 5.7	-4.4
22) COc1ccc(NC(=O)N(C)C[C@@H]2OCc3cn(nn3)CCCC(=O)N([C@H](C)CO)C[C@H]2C)cc1
→ 10.5	14.7
23) COc1ccc2c3c(n(C)c2c1)[C@@H](CO)N(S(C)(=O)=O)CC31CCN(Cc2nccs2)CC1
→ -19.8	-13.3
24) CCS(=O)(=O)N1CCC2(CC1)CN(S(=O)(=O)c1cccc(OC)c1)[C@H](CO)c1[nH]c3cc(OC)ccc3c12
→ -0.4	-2.9
25) C[C@@H]1CCCCO[C@H](CN(C)C(=O)NC2CCCCC2)[C@@H](C)CN([C@@H](C)CO)C(=O)c2cc(N(C)C)ccc2O1
→ -13.9	-2.1
26) CN1c2ccc(Br)cc2[C@H]2[C@H](CCN2C(=O)C2CC2)[C@@H]1CO
→ -5.7	-0.8
27) O=C(C[C@@H]1CC[C@@H]2NC[C@@H](O)COC[C@H]2O1)Nc1ccccc1
→ 4.8	-1.0
28) C[C@H](CO)N1C[C@H](C)[C@H](CN(C)CC2CCCCC2)Oc2c(NC(=O)Nc3ccccc3)cccc2C1=O
→ ?	nt
29) C[C@@H]1CCCCO[C@@H](CN(C)C(=O)Nc2ccc(F)cc2)[C@H](C)CN([C@@H](C)CO)C(=O)c2cc(NS(=O)(=O)c3cccs3)ccc2O1
→ -12.1	-14.3
30) COc1ccc(NC(=O)Nc2ccc3c(c2)C(=O)N([C@H](C)CO)C[C@@H](C)[C@H](CN(C)S(=O)(=O)c2ccc(C)cc2)O3)cc1
→ 3.5	5.7

More results
Each structure is followed by: Vaccinia inh	Vaccinia inh Venus
31) COc1ccc(-c2ccc(C3[C@H]4CNC[C@@H]3N4S(=O)(=O)c3cccc(OC)c3)cc2)cc1 (stereo partly drawn)
→ 0.4&0.8	8.6&3.4
32) CO[C@H]1CN(C)C(=O)c2cc(NC(=O)Nc3ccccc3F)ccc2OC[C@H](C)N(CC2CC2)C[C@H]1C
→ 3.8	2.2
33) O=C(C[C@H]1C=C[C@@H](NC(=O)C2CC2)[C@H](CO)O1)Nc1ccccc1
→ 6.2	11.6
34) O=C(C[C@H]1C[C@H]2c3cc(NC(=O)Nc4ccccc4F)ccc3O[C@H]2[C@H](CO)O1)NCc1ccc2c(c1)OCO2
→ -1.0	4.2
35) C[C@H]1CN([C@@H](C)CO)C(=O)c2cc(NC(=O)Nc3ccc(C(F)(F)F)cc3)ccc2O[C@H]1CN(C)Cc1ccc(Oc2ccccc2)cc1
→ ?	nt
36) O=C(C1CC1)N1CC(=O)N2[C@H](C1)[C@@H](c1ccc(C#CC3CCCC3)cc1)[C@@H]2CO
→ -23.3	-22.4
37) C[C@@H]1CN([C@@H](C)CO)C(=O)c2cc(NC(=O)Nc3ccccc3)ccc2O[C@@H]1CN(C)S(=O)(=O)c1cn(C)cn1
→ 18.8	3.5
38) COCC(=O)N1[C@H](CO)[C@@H](c2ccccc2)C12CN(C(=O)NC1CCCC1)C2
→ 10.3	6.4
39) C[C@H]1CN([C@@H](C)CO)S(=O)(=O)c2ccc(C3=CCCC3)cc2O[C@@H]1CN(C)C(=O)c1ccncc1
→ 17.9	11.3
40) C[C@H](CO)N1C[C@H](C)[C@H](CN(C)Cc2ccccc2)Oc2ccc(NC(=O)Cc3cn(C)c4ccccc34)cc2C1=O
→ -11.4	-8.6

(continued)
Each structure is followed by: Vaccinia inh	Vaccinia inh Venus
41) CC(=O)N(C[C@H]1N[C@H](CO)[C@@H]1c1ccc(-c2cccnc2)cc1)C1CCCC1
→ 1.5&-6.8	0.7&4.6
42) COCC(=O)N1C[C@H](C)[C@H](OC)CN(C)C(=O)c2ccc(NC(=O)c3cc(C)on3)cc2OC[C@@H]1C
→ 1.1	0.8
43) COc1ccc(C#Cc2ccc([C@@H]3[C@@H](CO)N4CCCCN(C(=O)Cc5ccncc5)C[C@H]34)cc2)cc1
→ -25.9	-21.5
44) CC(C)NC(=O)Nc1cccc2c1O[C@@H](CN(C)S(=O)(=O)c1ccc(F)cc1)[C@@H](C)CN([C@H](C)CO)C2=O
→ -1.5	4.9
45) O=C(C[C@@H]1C[C@@H]2c3cc(NC(=O)Cc4ccncc4)ccc3O[C@@H]2[C@@H](CO)O1)NCCN1CCCCC1
→ 4.2	2.1
46) Cc1ccc(S(=O)(=O)N(C)C[C@H]2Oc3ccc(NC(=O)CCN4CCOCC4)cc3C(=O)N([C@H](C)CO)C[C@@H]2C)cc1
→ 17.6	22.8
47) CCC(=O)N1C[C@@H]2[C@H](c3ccccc31)[C@H](CO)N2Cc1cc(F)ccc1F
→ 8.5	10.2
48) O=C(C[C@H]1C[C@@H]2c3cc(NC(=O)Nc4ccc(C(F)(F)F)cc4)ccc3O[C@@H]2[C@H](CO)O1)NCCc1ccccc1
→ 9.4	6.8
49) CCCC#Cc1ccc2c(c1)O[C@H](CN(C)C(=O)CC)[C@H](C)CN([C@@H](C)CO)S2(=O)=O
→ -7.7	-7.9
50) CN(C)CC#Cc1ccc([C@H]2[C@@H](CO)N3CCCCN(C(=O)Nc4ccc(F)cc4)C[C@@H]23)cc1
→ 18.7	3.0

The results go on.
Each structure is followed by: Vaccinia inh	Vaccinia inh Venus
51) CO[C@H]1CN(C)C(=O)c2cc(NC(=O)C3CCCCC3)ccc2OC[C@@H](C)NC[C@@H]1C
→ -6.7	-12.1
52) CC(C)NC(=O)N1[C@@H](CO)[C@@H]2c3ccccc3N(C(=O)Nc3cccc(Cl)c3)C[C@@H]21
→ 10.2	-1.4
53) CN1C(=O)c2cc(NC(=O)C3CCOCC3)ccc2OC[C@@H]2O[C@@H](CC(=O)NCC3CCCCC3)CC[C@H]21
→ 4.9	-0.6
54) C[C@@H]1CN([C@H](C)CO)C(=O)c2cccc(NC(=O)Nc3ccc(C(F)(F)F)cc3)c2O[C@H]1CN(C)C(=O)Nc1ccc(C(F)(F)F)cc1
→ ?	nt
55) CO[C@@H]1CN(C)C(=O)c2cc(NC(=O)c3nc4ccccc4s3)ccc2OC[C@H](C)NC[C@H]1C
→ -11.4	-3.0
56) Cc1noc(C)c1S(=O)(=O)Nc1ccc2c(c1)C(=O)N([C@H](C)CO)C[C@H](C)[C@@H](CN(C)CC1CCCCC1)OCCCC[C@@H](C)O2
→ -10.4	-12.0
57) COc1ccc(NC(=O)Nc2ccc3c(c2)[C@@H]2C[C@H](CC(=O)NCc4ccc5c(c4)OCO5)O[C@H](CO)[C@@H]2O3)cc1
→ 14.3	8.5
58) O=C(C[C@H]1CC[C@@H]2[C@H](COC[C@@H](O)CN2Cc2ccc(Cl)cc2)O1)NCc1ccccc1Cl
→ ?	nt
59) COc1ccc2c3c(n(C)c2c1)[C@H](CO)NCC31CN(Cc2cc(-c3ccccc3)on2)C1
→ -22.6	-21.4
60) C[C@@H]1CCCCO[C@@H](CN(C)C(=O)c2ccncc2)[C@@H](C)CN([C@H](C)CO)C(=O)c2cc(NS(=O)(=O)c3cccs3)ccc2O1
→ 5.5	0.7

Entries of single compounds, looked up by structure:
CC(C)NC(=O)N1[C@@H](CO)[C@@H]2c3ccccc3N(C(=O)Nc3cccc(Cl)c3)C[C@@H]21 is listed with Vaccinia inh = 10.2; Vaccinia inh Venus = -1.4
CN1C(=O)c2cc(NC(=O)C3CCOCC3)ccc2OC[C@@H]2O[C@@H](CC(=O)NCC3CCCCC3)CC[C@H]21 is listed with Vaccinia inh = 4.9; Vaccinia inh Venus = -0.6

Next entries:
Each structure is followed by: Vaccinia inh	Vaccinia inh Venus
61) COc1ccc(CN(C)C[C@@H]2Oc3ccc(NC(=O)CCN4CCOCC4)cc3CC(=O)N([C@@H](C)CO)C[C@H]2C)cc1
→ 5.9	-1.9
62) CC(C)COC(=O)N(C)C[C@@H]1OCc2ccccc2-c2ccccc2C(=O)N([C@H](C)CO)C[C@@H]1C
→ 5.9	-14.3
63) CCCNC(=O)N1[C@@H](CO)[C@H](c2ccccc2)C12CN(C(=O)CC)C2
→ 8.8	9.1
64) COc1ccc(NC(=O)Nc2ccc3c(c2)C(=O)N([C@H](C)CO)C[C@@H](C)[C@@H](CN(C)Cc2ccc(C(=O)O)cc2)OCCCC[C@@H](C)O3)cc1
→ 18.4	4.7
65) C[C@@H]1CN([C@H](C)CO)C(=O)c2cc(NS(=O)(=O)c3ccccc3)ccc2O[C@@H](C)CCCCO[C@@H]1CN(C)S(=O)(=O)c1cn(C)cn1
→ 11.9	8.2
66) CO[C@@H]1CN(C)C(=O)c2ccc(NS(C)(=O)=O)cc2OC[C@@H](C)N(C(=O)NC(C)C)C[C@@H]1C
→ -1.9	-3.4
67) CCCNC(=O)N1[C@H](CO)[C@H](c2ccc(-c3cccc(OC)c3)cc2)[C@@H]1C#N
→ ?	nt
68) O=C(C[C@@H]1CC[C@H](NC(=O)C2CCOCC2)[C@H](CO)O1)NCc1ccccc1Cl
→ -6.0	-11.8
69) C[C@@H]1CN([C@H](C)CO)C(=O)c2cccc(NC(=O)Nc3cccc4ccccc34)c2O[C@@H]1CN(C)Cc1ccccc1
→ -4.9	2.2
70) COc1ccc(CN(C)C[C@H]2OCCCC[C@H](C)Oc3ccc(N(C)C)cc3C(=O)N([C@H](C)CO)C[C@@H]2C)cc1
→ -24.3	-15.2

Continuation:
Each structure is followed by: Vaccinia inh	Vaccinia inh Venus
71) O=C(Nc1cccc(Cl)c1)N[C@H]1CC[C@@H](CCNC(=O)C2CC2)O[C@H]1CO
→ -2.7	-6.3
72) CC(C)NC(=O)N(C)C[C@@H]1Oc2cc(C#CC(C)(C)O)ccc2S(=O)(=O)N([C@H](C)CO)C[C@H]1C
→ 18.1	10.5
73) CO[C@@H]1CN(C)C(=O)c2ccc(NS(=O)(=O)c3ccc(F)cc3)cc2OC[C@H](C)NC[C@@H]1C
→ 16.7	13.1
74) C[C@H]1CN([C@@H](C)CO)C(=O)c2ccccc2-c2ccccc2CO[C@@H]1CN(C)Cc1cccc(C(F)(F)F)c1
→ ?	nt
75) C[C@H](CO)N1C[C@H](C)[C@@H](CN(C)C(=O)CN(C)C)Oc2cc(-c3ccc(C#N)cc3)ccc2S1(=O)=O
→ -8.6	-4.6
76) C[C@H](CO)N1C[C@H](C)[C@@H](CN(C)C)OCCCC[C@H](C)Oc2ccc(NC(=O)C3CCCCC3)cc2C1=O
→ -8.3	9.6
77) COCC#Cc1ccc([C@H]2[C@H](CO)N3CCCCN(C(=O)COC)C[C@@H]23)cc1
→ 20.7	20.7
78) CC(C)(C)[S@](=O)N1Cc2cc(C(=O)N3CCc4ccccc4C3)nc(-c3cccc(-c4cncnc4)c3)c2[C@@H]1CCO
→ 17.6	35.4
79) C[C@@H]1CN([C@H](C)CO)C(=O)Cc2cc(NC(=O)c3ccncc3)ccc2O[C@@H]1CN(C)Cc1ccc(Oc2ccccc2)cc1
→ 4.8	4.8

Bioassay records: PubChem BioAssay, Broad Institute

Not all compounds are listed; the hit share may differ from the screen's.
